Cruzain Triton: qHTS Assay for Promiscuous and Specific Inhibitors of Cruzain (with detergent); Cruzipain (Trypanosoma cruzi), P25779; purified cruzain, Z-FR-AMC fluorescence, 0.01% Triton; Potency, µM, inactives show max response, negative = inhibition, hits mostly inhibitors; actives 0.43% (n = 200,000); AID 1478, 2009;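 also: plate controls were neutral wells for no effect and buffer without enzyme for full effect; nearly all actives have a fitted effect of over 40% in size; top concentration of the series not given in the record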
Target sequence (P25779 123-467 limits assumed): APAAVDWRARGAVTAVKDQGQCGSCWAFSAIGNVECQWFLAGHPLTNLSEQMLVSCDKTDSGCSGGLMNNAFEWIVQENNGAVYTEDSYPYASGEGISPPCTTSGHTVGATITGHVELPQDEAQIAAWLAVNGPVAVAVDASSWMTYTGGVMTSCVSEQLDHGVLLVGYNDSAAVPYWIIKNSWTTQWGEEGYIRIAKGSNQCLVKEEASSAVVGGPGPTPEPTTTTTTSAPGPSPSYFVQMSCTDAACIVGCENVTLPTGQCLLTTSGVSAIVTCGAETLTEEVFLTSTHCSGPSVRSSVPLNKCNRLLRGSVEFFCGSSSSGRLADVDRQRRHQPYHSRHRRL
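Enzyme 1.5 nM, Z-FR-AMC 2 uM, NaOAc 100 mM pH 5.5, DTT 5 mM, Triton X-100 0.01%; 15 min RT compound preincubation; kinetic ex360/em450, 60 s delta.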
Cruzain inh noDet: qHTS Assay for Promiscuous and Specific Inhibitors of Cruzain (without detergent); Cruzipain (Trypanosoma cruzi), P25779; purified cruzain, Z-FR-AMC fluorescence, no detergent; Potency, µM, inactives show max response, negative = inhibition, usual class: inhibitors; actives 2.3% (n = 200,000);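 also: plate controls were enzyme without inhibitor for no effect and buffer without enzyme for full effect; nearly all actives have a fitted effect of over 40% in size; top concentration of the series not given in the record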
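Detergent-free condition (0.00005% Triton X-100) in acetate buffer pH 5.5 with DTT. 1.5 nM enzyme and compound were pre-mixed 15 min, then 2 uM Z-FR-AMC substrate added; reaction progress from fluorescence change between first and third reads (60 s).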
RE007 growth inh: qHTS Assay for Inhibitors of the HIV-1 protein Vpr; S. pombe RE007 Vpr strain, BacTiter-Glo ATP luminescence, 24 h; control for the full effect not named in the record; Potency, µM (doses to about 92.2 µM), inactives show at the top dose activity change, negative = less growth; actives 0.21% (n = 360,000); active = well fitted falling curve with a large enough effect; inconclusive = small, poorly fitted or top-dose-only effect; inactive = no such curve, though single readings can be large or run the other way;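 also: % is scaled to controls: 0 for no effect and ±100 for the full control effect; nearly all actives have a fitted effect of over 50% in size; the assay follows cell death caused by Vpr and the record does not say whether a fall means rescue or toxicity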
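Fission yeast strain RE007, carrying one chromosomally integrated HIV-1 vpr copy, was seeded at OD 0.01 in PMG+AL medium with 23 nL pinned compound. After 24 h at 30 °C and 99% humidity, viability was read by BacTiter-Glo luminescence.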
StopGo reporter: High Throughput Screening for Foot and Mouth Disease Virus Antivirals; human cells with a luciferase reporter of 2A StopGo recoding; control for the full effect not named in the record; Potency, µM (top dose mostly 57.9 µM), without a hit: at the highest dose signal change, negative = less light; actives 1.2% (n = 410,000); active = well fitted falling curve with a large enough effect; inconclusive = small, poorly fitted or top-dose-only effect; inactive = no such curve, though single readings can be large or run the other way; tested in HEK293T cells; also: % is scaled to controls: 0 for no effect and ±100 for the full control effect; nearly all actives have a fitted effect of over 45% in size; luciferase light after 4 h
NS1 inh: qHTS Assay for Inhibitors of Influenza NS1 Protein Function; S. cerevisiae slowed by influenza A NS1, growth recovery by OD600; Potency, µM (top dose mostly 46.1 µM), for inactives: at the top dose activity, positive = more growth; actives 0.4% (n = 270,000); active means well fitted rising curve with a large enough effect; inconclusive means small, poorly fitted or top-dose-only effect; inactive means no such curve, though single readings can be large or run the other way; also: nearly all actives have a fitted effect of over 50% in size
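OD600 was taken as the measure of yeast growth restored by compound in an NS1-expressing S. cerevisiae strain. Cells had been washed out of glucose medium and diluted 1:100 into galactose -URA medium, pH 6.0.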
Marburg entry inh: qHTS for inhibitors of binding or entry into cells for Marburg Virus. Marburg virus pseudotyped entry inhibition, cell reporter; control for the full effect not named in the record; about a third of the inactives were read at about 46 µM. Potency, µM (highest dose often 37.8 µM), for inactives: at the highest dose activity change, negative = inhibition, usual class: inhibitors. actives 1.8% (n = 300,000). AID 540276, 2011; active = well fitted inhibition curve with a large enough effect; inconclusive = small, poorly fitted or top-dose-only effect, or effect the other way; inactive = flat fitted curve, though single readings scatter; tested in HEK293 cells; about a fifth of its hits are not listed in these tables; also: % is scaled to controls: 0 for no effect and ±100 for the full control effect; luciferase read-out
SARS PLpro yeast: qHTS of Yeast-based Assay for SARS-CoV PLP. S. cerevisiae expressing SARS-CoV PLpro, growth rescue; control for the full effect not named in the record. Potency, µM (doses to about 32.9 µM), inactives show top-dose activity, positive = growth rescue. actives 0.19% (n = 330,000). AID 485353, 2010; active means well fitted rising curve with a large enough effect; inconclusive means small, poorly fitted or top-dose-only effect; inactive means no such curve, though single readings can be large or run the other way; also: 0% is about no effect; nearly all actives have a fitted effect of over 55% in size; growth read by luminescence after 48 h
LASV entry inh: qHTS for Inhibitors of binding or entry into cells for Lassa Virus; actives 1.2% (n = 300,000); Lassa virus pseudotype entry inhibition, cell reporter; control for the full effect not named in the record; Potency, µM (series often up to 37.9 µM), inactives show at the highest dose activity change, negative = inhibition, hits mostly inhibitors; AID 540256, 2011; active means well fitted inhibition curve with a large enough effect; inconclusive means small, poorly fitted or top-dose-only effect, or effect the other way; inactive means flat fitted curve, though single readings scatter; tested in HEK293 cells; also: % is scaled to controls: 0 for no effect and ±100 for the full control effect; nearly all actives have a fitted effect of over 50% in size; luciferase read-out
* = called active by the depositor; ? = inconclusive; . = no result given; & = joins results of further samples; [ ] = dose if it differs, or a comment. Unless noted, calls follow the shape of the dose curve; as a rule, active = well fitted curve in the direction sought with a large enough effect; inconclusive = small, poorly fitted or top-dose-only effect, or another doubt; inactive = no such curve, though single readings can be large; an effect the other way counts as inactive or inconclusive. Potency is read from the fitted curve at half-maximal effect. Random draw from the library (roughly 4.5% active in at least one column).

SMILES | Cruzain Triton | Cruzain inh noDet | RE007 growth inh | StopGo reporter | NS1 inh | Marburg entry inh | SARS PLpro yeast | LASV entry inh
Cc1ccccc1OCCC(=O)Nc1ccc(F)c(Cl)c1 | -8.8% | -26% | ? | -22% | -48% | ? | -66% | -16%
CCn1c(O)c(N=NC(=O)Cc2csc(N3CCOCC3)n2)c2ccccc21 | . | . | 5% | -18% | . | -15%[46.1 µM] | 1% | .
CN(CC(=O)Nc1ccc(F)c(Cl)c1)S(=O)(=O)c1cccc2nsnc12 | -8.1% | -10% | -5% | ? | -25% | ? | 16% | ?
Cc1c(C(=O)O)[nH]c2c1C(=O)CC(c1ccc(Cl)cc1)C2 (centres undefined) | -5.7% | -10% | -5% | . | 10% | 18% | 0% | ?
CC(C)CNC(=O)c1cccc(NC(=O)CCc2ccccc2)c1 | . | . | 3% | 4% | 5% | 1% | -1% | 3%
Cc1c(C(=O)N(C)c2ccccc2)sc2nc(-c3ccc(F)cc3)cn12 | -8.0% | 12% | . | 34%[activator] | . | . | . | -8%[46.1 µM]
COc1ccc(-c2nnn(CCc3nn[nH]n3)n2)cc1 | . | . | 19% | 15% | . | 22% | . | 1%
CC1CCC(N2CCN(S(C)(=O)=O)CC2)CC1 (centres undefined) | 6.6% | 1% | 1% | 10% | 0% | 0% | 4% | 10%
Cc1coc2cc3oc(=O)cc(C)c3cc12 | -1.8% | 10% | -5% | 10% | 4% | 5% | -1% | 14%
CCN(Cc1ccccc1)S(=O)(=O)c1ccc(C(=O)N(CCCN(C)C)c2nc3cc4c(cc3s2)OCO4)cc1 | . | . | 7% | -5% | 0% | ? | -1% | ?
Cc1ccc2[nH]c3c(c2c1)CCCC3C(N)=O (centres undefined) | -5.1% | 3% | 4% | 2% | -7% | 5% | 8% | -14%
CC(Sc1nc(=O)cc(N)n1CCc1ccccc1)C(=O)Nc1ccccc1C#N (centres undefined) | -12% | -12% | . | -3% | . | 10%[46.1 µM] | . | 17%[46.1 µM]
CCC(CC)COC(=O)C1=C(C)NC(=O)NC1c1ccc2c(c1)OCO2 (centres undefined) | . | . | 1% | ? | 30% | ? | 13% | ?
COC(=O)C1CCN(Cc2cn(-c3ccccc3)nc2-c2ccc3c(c2)OCO3)CC1 | . | . | -5% | 10% | -1% | ? | 0% | -24%
Cc1ccc(CN2C(=O)CN=C(c3ccccc3)c3ccccc32)cc1 | -5.5% | -8% | . | ? | -56% | ? | -20% | -23%
COc1ccccc1Nc1ncnc2nc[nH]c12 | -0.2% | -3% | 11% | 0% | -2% | 20% | 13% | 9%
Cc1onc(-c2ccccc2)c1C(=O)NCC1CCCO1 (centres undefined) | -2.6% | -5% | -2% | -11% | 7% | 19% | 2% | -2%
COCCCN1C(=O)C(=O)/C(=C(/O)c2ccc(OCC(C)C)cc2C)C1c1cccnc1 (centres undefined) | 4.9% | 24% | 4% | -5% | -1% | 2% | 0% | 8%
CC(C)(C)C1(O)CC(C(F)(F)F)=NN1C(=O)Cc1ccc([N+](=O)[O-])cc1 (centres undefined) | . | . | -2% | ? | . | ? | -2% | 2%
COc1ccc(-c2noc(CCC(=O)NCCCN3CCC(C)CC3)n2)cc1 | 6.7% | -5% | -6% | -10% | -2% | ? | 0% | 3%

Part of the list above, as tab-separated lines.
smiles	Cruzain Triton	Cruzain inh noDet	RE007 growth inh	StopGo reporter	NS1 inh	Marburg entry inh	SARS PLpro yeast	LASV entry inh
Cc1coc2cc3oc(=O)cc(C)c3cc12	-1.8%	10%	-5%	10%	4%	5%	-1%	14%
CCN(Cc1ccccc1)S(=O)(=O)c1ccc(C(=O)N(CCCN(C)C)c2nc3cc4c(cc3s2)OCO4)cc1	.	.	7%	-5%	0%	?	-1%	?
Cc1ccc2[nH]c3c(c2c1)CCCC3C(N)=O (centres undefined)	-5.1%	3%	4%	2%	-7%	5%	8%	-14%
CC(Sc1nc(=O)cc(N)n1CCc1ccccc1)C(=O)Nc1ccccc1C#N (centres undefined)	-12%	-12%	.	-3%	.	10%[46.1 µM]	.	17%[46.1 µM]
CCC(CC)COC(=O)C1=C(C)NC(=O)NC1c1ccc2c(c1)OCO2 (centres undefined)	.	.	1%	?	30%	?	13%	?
COC(=O)C1CCN(Cc2cn(-c3ccccc3)nc2-c2ccc3c(c2)OCO3)CC1	.	.	-5%	10%	-1%	?	0%	-24%
Cc1ccc(CN2C(=O)CN=C(c3ccccc3)c3ccccc32)cc1	-5.5%	-8%	.	?	-56%	?	-20%	-23%
COc1ccccc1Nc1ncnc2nc[nH]c12	-0.2%	-3%	11%	0%	-2%	20%	13%	9%
Cc1onc(-c2ccccc2)c1C(=O)NCC1CCCO1 (centres undefined)	-2.6%	-5%	-2%	-11%	7%	19%	2%	-2%

(cont.)
SMILES | Cruzain Triton | Cruzain inh noDet | RE007 growth inh | StopGo reporter | NS1 inh | Marburg entry inh | SARS PLpro yeast | LASV entry inh
O=C(CSc1nnc(-c2cccc(F)c2)o1)N1CCCC1 | . | . | -1% | 52%[activator] | -3% | ? | 2% | ?
CCCCC(=O)Nc1cccc(NC(=O)c2cccnc2Cl)c1 | . | . | 10% | -9% | 2% | . | 1% | .
O=C(Nc1ccc(-n2nncc2-c2ccccc2)cc1)c1cccc(F)c1 | 11% | 9% | . | -19% | . | . | . | ?
O=C(/C=C/c1cccc([N+](=O)[O-])c1)OCC(=O)N1CCOCC1 | . | . | -23% | -1% | . | . | -1% | -4%
Cc1cccc(N2CCN(C(=O)CCc3nc4ccccc4c(=O)[nH]3)CC2)c1C | . | . | 5% | -3% | . | 8%[46.1 µM] | 3% | 13%[46.1 µM]
Cc1ccc(NC(=O)CS(=O)CC(=O)N(c2ccccc2)C(C)C(=O)NC2CCCC2)cc1 (centres undefined) | 2.3% | ? | -15% | . | -2% | -2%&-23% | 4% | 0%
COc1ccc(-c2nc(C#N)c(N3CCCCCC3)o2)cc1OC | 1.9% | ? | 12% | . | -76% | -30% | -11% | ?
Fc1ccc(CCNCc2ccccc2Cl)cc1 | 4.6% | 11% | -6% | . | 1% | -7% | -14% | 22%
Cc1noc(NS(=O)(=O)c2ccc(N/C=C/C(=O)c3ccc(F)cc3)cc2)c1C | . | . | -6% | 0% | . | -5%[46.1 µM] | -1% | .
N#CC1CCN(C(=O)c2ccc3c(Cl)c4c(nc3c2)CCCC4)CC1 | . | . | 5% | 46%[activator] | -15% | . | 6% | .
Cc1c(C(=O)NCCN2CCOCC2)sc2nc(-c3ccc(F)cc3)cn12 | . | . | 3% | . | 2% | -11% | . | 1%
CC(C)(C)c1ccc(Cn2c(=N)n(CC(O)c3ccco3)c3ccccc32)cc1 (centres undefined) | . | . | 0% | 20µM* | 2% | 11µM* | 0% | -27%
O=C(NCc1ccccc1)c1noc2c1CCCCC2 | -1.6% | -1% | -6% | 40%[activator] | -46% | ? | -4% | 55%[14.3 µM]
COc1ccc(C2N3CC4(C)CN2CC(C)(C3)C4O)cc1 (centres undefined) | 0.6% | -4% | 5% | -1% | -2% | -8% | -11% | -1%
O=C(COc1ccc(OCc2ccccc2)cc1)NC1CCOC1=O (centres undefined) | 8.3% | -3% | -5% | -8% | -1% | 0% | 1% | 1%
CCc1ccc(Nc2nn(-c3ccc(OC(F)(F)F)cc3)nc2C(C)=O)cc1 | 2.6% | 17% | . | -2% | . | -2%[46.1 µM] | . | 29%[46.1 µM]
Cc1cc(C)c(OCC(=O)OCC(=O)NCc2cccs2)c(C)c1 | . | . | -5% | -14% | . | 18% | 1% | 4%
CCOc1ccc(S(=O)(=O)NCCC(=O)N2CCN(Cc3ccccc3)CC2)cc1 | . | . | -4% | -27% | . | -28% | -3% | -7%
Cc1ccc(C2(C)NC(=O)N(CC(=O)c3ccc(Cl)s3)C2=O)cc1 (centres undefined) | -5.7% | -12% | -21% | 15% | 10% | ? | -20% | 3%
COc1ccccc1NC(=O)CC1C(=O)Nc2c1c(=O)n(C)c(=O)n2C (centres undefined) | 1.5% | 3% | -7% | 0% | 7% | 1% | -12% | -3%
CCOC(=O)c1ccccc1NC(=O)c1cc2ccccc2o1 | . | . | 15% | 9% | 10% | . | 2% | .
CCCc1nc2oc3c(N4CCNCC4)ncnc3c2c2c1CCCC2 | 3.0% | 0% | . | . | -2% | . | -10% | .
Cc1nnc(C)n1/N=C/c1ccc(C(C)C)cc1 | 0.1% | -1% | 8% | . | -10% | 4% | -9% | -10%
Cc1ccc(NC2=CC(=O)CCC2)cc1C | -1.6% | 5% | 11% | 15% | -2% | 5% | ? | ?
Cc1oc2ccc(OC(C(=O)O)c3ccccc3)cc2c1C(=O)O (centres undefined) | . | . | -10% | -5% | 2% | 4% | 3% | ?
CCCCOC(=O)CCc1c(C)n[nH]c1C | . | . | -2% | -15% | 5% | 11%[14.2 µM] | 1% | 2%
Cc1ccc(NC(=O)CN2C(=O)/C(=C3\SC(=S)N(C4CCS(=O)(=O)C4)C3=O)c3ccccc32)cc1 (centres undefined) | 0.3% | -21% | 4% | ? | 9% | 14% | 5% | 16%
O=C1CCSC2(C(=O)N(Cc3ccc(F)cc3)c3ccccc32)N1c1cccc(F)c1 (centres undefined) | -5.6% | -7% | . | -27% | . | . | . | ?
CCOc1ccccc1C(=O)N(C)CC(=O)Nc1ccc(OC)cc1 | . | . | 0% | -2% | -1% | 7% | 10% | 5%
CN(C)c1ccc(/C=N\NC(=S)SCN2C(=O)C3CCC(C)(C2=O)C3(C)C)cc1 (centres undefined) | 1.9% | 32µM* | -10% | 16% | ? | -15%[46.1 µM] | 13µM* | ?
